# VACV mCherry inh – vaccinia inhibition (mCherry reporter); Vaccinia virus mCherry reporter infection, fluorescence; about a quarter of the inactives have no number; Potency, µM (highest dose often 36.5 µM), without a hit: at the top dose activity change, negative = inhibition, usual class: inhibitors; 0.63% of 310,000 active; AID 720579; active = well fitted inhibition curve with a large enough effect; inconclusive = small, poorly fitted or top-dose-only effect; inactive = no such curve, though single readings can be large or run the other way; tested in A549 cells; note: nearly all actives have a fitted effect of over 35% in size; inactives centre near -10
# VACV Venus inh – vaccinia inhibition (Venus reporter); Vaccinia virus Venus reporter expression, fluorescence; Potency, µM (doses to about 36.5 µM), for inactives: at the highest dose activity change, negative = inhibition, most hits filed as inhibitors; 0.46% of 330,000 active; active means well fitted inhibition curve with a large enough effect; inconclusive means small, poorly fitted or top-dose-only effect; inactive means no such curve, though single readings can be large or run the other way; tested in A549 cells; note: nearly all actives have a fitted effect of over 30% in size; inactives centre near -10
# * hit, by the source's call; i = inactive; ? = inconclusive; nt = no result given; [ ] = remark or other dose. % is set by controls: 0 for no effect and ±100 for the full control effect; potency is the fitted concentration of half-maximal effect.
SMILES,VACV mCherry inh,VACV Venus inh
C[C@H](CO)N1C[C@H](C)[C@@H](CN(C)Cc2ccncc2)Oc2ccc(NC(=O)Cn3cnnn3)cc2C1=O,-15.0%,-14.2%
CCOc1cccc2cc(-c3nc4ccc(C(=O)O)cc4[nH]3)c(=O)oc12,0.5%,-7.5%
CCOc1ccccc1NC(=O)c1ccccc1N(C)S(C)(=O)=O,nt,-11.6%
COc1ccc(C(=O)NC(=S)NCc2ccco2)cc1Br,-14.1%,-10.3%
COc1cccc(CN(C)C(=O)CNC(=O)c2sc3ccccc3c2Cl)c1OC,-12.9%,-26.5%
Cn1c(=O)c2[nH]c(NN=Cc3ccc(Br)cc3)nc2n(C)c1=O,-18.6%,-1.2%
COc1ccc(C(=O)Cn2nnc(-c3ccccc3NC(=O)C3CC3)n2)cc1,-16.7%,?
CCCc1nn2c(=O)cc(COC(=O)c3ccc(NC(=O)CCc4ccccc4)cc3)nc2s1,i,-12.1%
C[C@H](CO)N1C[C@H](C)[C@@H](CN(C)C(=O)CCC(F)(F)F)OCc2cnnn2CCCC1=O,i,1.1%
CCc1cc(=O)oc2cc3occ(C)c3cc12,-10.4%,-6.2%
O=C(COC(=O)c1ccc(NS(=O)(=O)c2cccs2)cc1O)NC1CCCCC1,19.3%,-9.4%
Cc1ccc(S(=O)(=O)N(CC(O)CN2C(=O)NC(C)(C)C2=O)c2cccc([N+](=O)[O-])c2)cc1 (stereo unspecified),-23.0%,-11.2%
COc1ccc(NC(=O)N2CCCC2C(=O)Nc2ccccc2F)cc1 (stereo unspecified),5.3%,2.3%
CCOc1ccc(N2C(=O)CC(N(Cc3ccco3)C(C)=O)C2=O)cc1 (stereo unspecified),i,6.2%
CSCC[C@@H](C(=O)Nc1cccc(F)c1)N1Cc2ccccc2C1=O,1.9%,12.5%
O=C(COC(=O)c1cccc(S(=O)(=O)N2CCCC2)c1)NCc1ccccc1,i,-3.7%
N#CCSc1ccccc1NC(=O)CN1C(=O)NC(CCc2ccccc2)C1=O (stereo unspecified),i,-5.8%
CN1CCN(C(=O)Cn2c(-c3cccs3)cc3ccccc32)CC1,-9.4%,-9.5%
Cc1ccc(C)c(N2CCN(C(=O)c3cnn(-c4ccccc4Cl)c3C3CCN(C(=O)OC(C)(C)C)CC3)CC2)c1,-27.4%,?
O=C(CCS(=O)(=O)c1ccc(Br)cc1)NCc1cccs1,-12.8%,-3.5%
COc1cccc(-c2cnc(C(O)c3ccc(F)cc3C)[nH]2)c1 (stereo unspecified),16.3%,-0.5%
COCCNC(=S)N1CCN(C)CC1,i,0.0%
Cc1cccc(C(=O)Nc2nnc(S(=O)(=O)N3CCOCC3)s2)c1,-3.9%[7.34 µM],7.0%[7.34 µM]
CSC[C@H]1CN(Cc2ccccc2)C(=O)[C@@H]1CC(=O)Nc1ccc(Br)cc1,-4.0%,5.4%
Clc1ccc(-c2nn3c(-c4cc(-c5ccccc5)n[nH]4)nnc3s2)cc1,20.6%,-13.8%
CCOC(=O)C1(Cc2ccccc2C)CCCN(C(=O)c2ccnn2C)C1 (stereo unspecified),-9.3%,-8.1%
Cc1cccc(OCC(O)Cn2c(=N)n(CCN3CCCCC3)c3ccccc32)c1 (stereo unspecified),?,?
Cc1ccccc1-c1cccc([C@@H]2C[C@H]3[C@H](CON3C)CN2C(=O)CCc2ccccc2)c1,i,-6.3%
C=CCSc1nnc(-c2cccnc2)o1,-8.6%,-3.9%
CC1CCN(C(=O)COC(=O)c2nn(C)c(=O)c3ccccc23)CC1,i,-7.6%
CCc1nc2sc3c(c2c(=O)n1CCO)CCC3,-6.2%,-9.6%
CCOc1ccc(NC(=O)c2cc3cc4ccc(OC)cc4nc3o2)cc1,-14.8%,-10.1%
CCc1ccc(NC(=O)CC2C(=O)N(c3cccc(OC)c3)C(=O)N2Cc2ccc(F)cc2)cc1 (stereo unspecified),-10.4%,-22.2%
COc1ccc(CCN(C)C2CCCN(C(=O)Cn3cnnn3)C2)cc1OC (stereo unspecified),-2.8%,-8.9%
CCOc1ccc(NC(=O)C2CCCN(c3c(CC)c(C)nc4ncnn34)C2)cc1 (stereo unspecified),?,-29.5%
Cc1ccc(C)c(N2CCN(C(=O)c3cc(C)nc4c3c(C)nn4-c3ccccc3)CC2)c1,?,-23.4%
COc1cccc(/C=N/NC(=O)c2ccc(N(C)S(=O)(=O)c3ccccc3)cc2)c1OC,-0.8%,-14.6%
CC(C)N1CCC(NC(=O)NC2CCCCC2)CC1,-18.7%,6.8%
Cc1cc([N+](=O)[O-])ccc1NC(=O)C(C)[n+]1ccccc1 (stereo unspecified),i,-6.9%
Cc1noc(/C=C/Nc2ccc(F)cc2F)c1[N+](=O)[O-],-18.1%,-19.0%

# Looked up above:
# VACV mCherry inh result of `CCc1nc2sc3c(c2c(=O)n1CCO)CCC3` → -6.2%
# VACV Venus inh result of `CCc1ccc(NC(=O)CC2C(=O)N(c3cccc(OC)c3)C(=O)N2Cc2ccc(F)cc2)cc1` (stereo unspecified) → -22.2%
# VACV Venus inh result of `CCOc1ccc(NC(=O)C2CCCN(c3c(CC)c(C)nc4ncnn34)C2)cc1` (stereo unspecified) → -29.5%
# VACV Venus inh result of `CCOc1ccc(NC(=O)c2cc3cc4ccc(OC)cc4nc3o2)cc1` → -10.1%

# A different layout for seven compounds above.
# Below each compound: VACV mCherry inh, VACV Venus inh
CCc1ccc(NC(=O)CC2C(=O)N(c3cccc(OC)c3)C(=O)N2Cc2ccc(F)cc2)cc1 (stereo unspecified)
  -10.4%, -22.2%
COc1ccc(CCN(C)C2CCCN(C(=O)Cn3cnnn3)C2)cc1OC (stereo unspecified)
  -2.8%, -8.9%
CCOc1ccc(NC(=O)C2CCCN(c3c(CC)c(C)nc4ncnn34)C2)cc1 (stereo unspecified)
  ?, -29.5%
Cc1ccc(C)c(N2CCN(C(=O)c3cc(C)nc4c3c(C)nn4-c3ccccc3)CC2)c1
  ?, -23.4%
COc1cccc(/C=N/NC(=O)c2ccc(N(C)S(=O)(=O)c3ccccc3)cc2)c1OC
  -0.8%, -14.6%
CC(C)N1CCC(NC(=O)NC2CCCCC2)CC1
  -18.7%, 6.8%
Cc1cc([N+](=O)[O-])ccc1NC(=O)C(C)[n+]1ccccc1 (stereo unspecified)
  i, -6.9%

# Next part
SMILES,VACV mCherry inh,VACV Venus inh
Cc1ccc(NC(=O)CN(C)C(=O)c2ccccc2OCc2c(C)noc2C)cc1,-13.0%,-0.9%
Cc1ccc(CN2CCN(CC3CC4C=CC3C4)CC2)cc1 (stereo unspecified),nt,0.1%
Cc1ccc(OCC(=O)N(C)CC(=O)Nc2ccc(N3CCOCC3)cc2)cc1,-9.8%,-0.6%
O=C(/C=C/c1ccc(-c2ccc(F)cc2)o1)N1CCCC1,-18.7%,-14.4%
COc1ccc(Cl)cc1NC(=S)Nc1cccc(C)c1,4.5%,-3.3%
O=C(CSc1ncn[nH]1)Nc1cc(S(=O)(=O)N2CCCC2)ccc1Cl,-5.0%,-7.1%
O=C(O)c1ccc(N=N/C(=N\Nc2ccc(C(=O)O)cc2)c2ccccc2)cc1,i,-10.8%
COc1ccc(CC(=O)OCc2cc3ccc(C)cc3[nH]c2=O)cc1,-6.8%,-9.6%
CCOC(=O)C[n+]1c(C)sc2ccc(OC)cc21,-34.3%,-23.7%
O=C1CC(c2cccs2)CC2=C1C(c1ccccc1)n1ncnc1N2 (stereo unspecified),nt,-0.3%
CCO[C@H]1OC(C(=O)NC2CC2)=C[C@@H](c2csc3ccccc23)[C@@H]1CCCO,i,-9.2%
c1ccc(CSc2nnc3ccc(-c4ccncc4)nn23)nc1,i,-10.5%
COc1ccccc1NC(=O)CN1CCN(CC(=O)Nc2ccc3c(c2)OCO3)CC1,nt,-22.9%
Cc1ccc2c(c1)C=CC(C)(C)S2=O (stereo unspecified),-12.9%,2.3%
CC(=O)Nc1nc(C)nc(-c2ccccc2OC(C)=O)n1,-21.2%,-12.2%
CN(C(=O)COC(=O)/C=C/c1ccc(F)cc1)c1c(N)n(Cc2ccccc2)c(=O)[nH]c1=O,-2.3%,-13.5%
N#Cc1c(-c2ccco2)cc(-c2ccccn2)nc1N,nt,-14.3%
CCC(C)C(NC(=O)[C@@H](NC(=O)c1ccccc1F)C(C)C)C(=O)OC (stereo partly specified),-18.2%,-12.7%
O=C(Cc1ccc(Cl)cc1)Nc1cc(Cl)ccn1,-1.7%,4.2%
Cc1nc(-c2ccc(S(=O)(=O)Oc3ccc(Cl)cc3Cl)s2)cs1,-16.2%,-30.0%

# Sorted by SMILES length (low to high): some entries from above
SMILES,VACV mCherry inh,VACV Venus inh
Cc1ccc2c(c1)C=CC(C)(C)S2=O (stereo unspecified),-12.9%,2.3%
O=C(Cc1ccc(Cl)cc1)Nc1cc(Cl)ccn1,-1.7%,4.2%
CC(=O)Nc1nc(C)nc(-c2ccccc2OC(C)=O)n1,-21.2%,-12.2%

# Random excerpt: two records from the list
SMILES,VACV mCherry inh,VACV Venus inh
CCO[C@H]1OC(C(=O)NC2CC2)=C[C@@H](c2csc3ccccc23)[C@@H]1CCCO,i,-9.2%
N#Cc1c(-c2ccco2)cc(-c2ccccn2)nc1N,nt,-14.3%

# (next part)
SMILES,VACV mCherry inh,VACV Venus inh
CC(C)NC(=O)N1CCN(c2ccncc2S(=O)(=O)N2CCOCC2)CC1,nt,-23.5%
O=C(NCc1cccnc1)c1cccc(F)c1,nt,-3.8%
Cc1ccccc1NC(=O)C1(C)Cc2ccccc2C(=O)O1 (stereo unspecified),-2.7%,-21.9%
COc1cc(C(C)=O)ccc1OCC(O)CN1CCN(c2ccc(C)c(C)c2)CC1 (stereo unspecified),i,-10.2%
O=C(Cc1ccc(NC(=O)C2CCN(C(=O)C3CC3)CC2)cc1)Nc1cccc(C(=O)N2CCCCC2)c1,1.9%,6.7%
CN(CC(=O)Nc1cccc(F)c1)C(=O)c1ccc(OCC2CCCO2)cc1 (stereo unspecified),i,-14.4%
O=C(CC(Nc1ccccc1)c1ccccc1)C1CC1 (stereo unspecified),i,0.5%
CCc1ccc(N2NC(=O)/C(=C/C=C/c3ccco3)C2=O)cc1,-15.0%,0.7%
O=C(CCn1c(=O)oc2ccccc21)NCc1ccco1,-12.4%,9.0%
COC(=O)C[C@@H]1CC[C@H](NC(=O)c2ccc3c(c2)OCO3)[C@@H](CO)O1,-8.1%,-4.0%
Cc1cc(NC(=O)CCCn2ccc([N+](=O)[O-])n2)n(Cc2ccc(F)cc2)n1,-14.0%,-1.7%
COc1ccc(Cl)cc1NC(=O)c1cc(S(=O)(=O)N(C)Cc2ccccc2)ccc1F,-10.4%,-14.6%
C#CCNS(=O)(=O)c1ccc(F)cc1Br,-11.2%,-7.7%
CN(CC(=O)NC1CCCCC1)S(=O)(=O)c1cccc2cccnc12,0.1%,-2.6%
S=C(NCc1ccc2[nH]c3c(c2c1)CCCC3)Nc1ccccc1Cl,-22.8%,-16.4%
O=S1(=O)CCN2C(Cc3ccc(SC(F)F)cc3)=CSC2=N1,nt,-3.7%
CCN(N=O)[C@@H](Cc1ccccc1)CN(N=O)[C@@H](Cc1ccccc1)CN(C)N=O,-1.5%,-15.1%
COc1ccc(S(=O)(=O)NCCCCC(=O)O)cc1C(=O)O,-3.7%,-6.3%
CCC(=O)Nc1cccc(C(=O)c2ccc(C)c(C)c2)c1,i,-14.8%
COc1ccc(Cc2c(-c3ccc(F)cc3)nc3ccc(Br)cn23)c(C)c1,2.1%,1.7%
CC(C)(C)NC(=O)C(c1cccs1)N(CC1CCCO1)C(=O)c1ccc(-c2ccccc2)[nH]1 (stereo unspecified),-14.7%,-15.2%
COCCCNc1cc(C)nc2ccccc12,-9.2%,-1.7%
Cc1ccc(SCc2cc(=O)n3[nH]c(C)nc3n2)cc1,-13.3%,-15.7%
O=C(Nc1cccnc1)c1cccc(S(=O)(=O)Nc2ccccc2F)c1,-17.6%,-9.1%
O=C(NCc1ccco1)c1cnc2sccn2c1=O,-14.3%,-11.1%
CC1CCCC(C)N1C(=O)COC(=O)c1ccc(Br)o1 (stereo unspecified),i,-10.6%
CCOc1ccc(NC(=O)CSc2cn(CC(=O)N3CCCCCC3)c3ccccc23)cc1,-14.7%,-15.5%
CCOc1ccc(NC(=O)C2CC(=O)N(C)C(=Nc3ccc4c(c3)OCO4)S2)cc1 (stereo unspecified),-15.8%,-5.1%
O=C(NC(=S)Nc1c(Cl)cc(Cl)cc1Cl)c1ccccc1,-10.0%,-17.6%
Cc1ccccc1OCC(=O)NNC(=O)c1cc(S(=O)(=O)N(C)C)ccc1N1CCCC1,i,-7.3%
COc1cc([N+](=O)[O-])ccc1NC(=O)N1CCC2(CC1)Nc1cc(F)ccc1-n1cccc12,-18.9%,-10.4%

# High-throughput results: PubChem, National Center for Advancing Translational Sciences (NCATS)
